# From PubChem
# T cruzi repl: T. cruzi replication inhibition; T. cruzi beta-gal in NIH3T3, luminescence, 90 h; inhibition, % (concentration not given with the values); actives 1.4% (n = 300,000); AID 1885;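 active = mean inhibition across valid replicates above about 55%, limit read from the data; inconclusive = mean below that limit but half or more replicates reach it; inactive = mean below it, under half of replicates reach it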;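 note: signal also drops with host cell toxicity which is not excluded here; 0% = plate median of DMSO wells and 100% = zero luminescence signal; higher percent means less beta-gal luminescence so fewer parasites; stock transfer was 50 nL into about 50 µL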
# Ecoli rRNA inh: selective bacterial rRNA inhibition in E. coli; E. coli WT GFP vs humanized-ribosome RFP mutants, fluorescence, 24 h; active compounds read low; DMSO median 0, no signal -100; GFP signal change (wild-type ribosome), % (no concentration beside the values); actives 1.6% (n = 350,000); AID 720706;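 active = significant combined selectivity score with lowered wild-type GFP, culture density cut under 30%, mutant RFP and density less affected; inactive = any of these conditions unmet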; note: one replicate is shown; some compounds called inactive have numbers as strong as hits
# RanGTP-Impb inh: inhibitors of RanGTP-importin-beta interaction, primary screen, biochemical, FRET, CFP-Ran, YFP-importin-beta, homogeneous | AID 2216 | inhibition, % (concentration not given with the values) | cell-free CFP-Ran/YFP-importin-beta FRET ratio | actives 1.1% (n = 300,000);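 active = most replicates above 15%; inconclusive = exactly half above 15%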;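 note: 0% = DMSO wells and 100% = Ran loaded with GDP instead of GTP; wells of about 40 µL received 100 nL stock; the first replicate is given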
# Beta apoptosis: blocks beta cell apoptosis. INS-1E cytokine-induced death, ATP luminescence, 48 h; percent of positive-control rescue, neutral wells zero. protection from apoptosis, % (concentration not given with the values). actives 0.8% (n = 300,000);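 active = all replicates at 75% or more, or half of them and the mean; inconclusive = half reach 75% but not the mean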;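 note: 0% = cytokine-treated negative control wells and 100% = positive control rescue; higher means more ATP so stronger rescue from cytokine killing; wells of about 40 µL received 100 nL stock; the first replicate is given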
# Vif A3G: HIV-1 Vif–A3G interaction blockers – biochemical, TR-FRET, GST-Vif 1-94, biotin-A3G peptide, dose response retest, primary screen (AID 1117319) | one-dose inhibition, %; IC50 in µM for titrated hits | TR-FRET GST-Vif / biotin-A3G peptide binding; higher % means a stronger effect; test concentration not given here; strong numbers were not always called active | actives 0.57% (n = 260,000);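 active = above the screen mean plus three standard deviations and confirmed in dose response; inconclusive = results disagree or hit not tested in dose response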;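 note: Vif residues 1-94 fused to GST binding biotinylated APOBEC3G peptide 110-148; 0% = full assay without inhibitor and 100% = GST in place of GST-Vif; retest series ran down from 100 µM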
# Calb FLC: affects C. albicans growth with fluconazole; C. albicans CaCi-2 (fluconazole-resistant clinical isolate) + fluconazole, Alamar Blue growth, 48 h; growth inhibition, % (concentration not given with the values); actives 0.57% (n = 300,000);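 active = most replicates above 75%; inconclusive = exactly half above 75%; inactive = most below 75%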;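 note: all wells also contain fluconazole at 8 µg/ml as a sub-toxic cotreatment; 0% = median of DMSO wells and 100% = median of geldanamycin control wells; wells of about 8 µL received 7.5 nL stock; the first replicate is given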
# Bfl-1 A1 inh: inhibitors of the anti-apoptotic protein A1, read as caspase activation | MEF A1-2A-BIM cells, Caspase-Glo 3/7 luminescence, 3 h; percent of clofoctol response, vehicle zero | caspase activation, % (concentration not given with the values) | actives 0.066% (n = 330,000) | AID 2462;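 active = over half of replicate activation scores above 10%, or exactly half above 10 with the replicate mean above 10; inconclusive = replicate mean below 10 yet half the replicates above 10; inactive = over half of replicates below 10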;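 note: wells of about 30 µL received 50 nL stock; many hits fall short of the cut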
# MLL AF4-AF9 inh: blocks AF4 peptide binding to human AF9. actives 0.47% (n = 350,000). inhibition, % at 10 µM. AlphaScreen, biotin-AF4 peptide binding to FLAG-AF9. P42568;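 active = every replicate reaching a set inhibition limit, whatever the replicate mean, cut at about 25% in these data; inconclusive = mean inhibition reaches that limit but some replicates miss it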;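 note: 0% = plate neutral control median and 100% = total signal loss; the record names both 10 and 1 µM as test concentration; the first replicate is given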
# Target sequence (P42568 whole entry, looked up): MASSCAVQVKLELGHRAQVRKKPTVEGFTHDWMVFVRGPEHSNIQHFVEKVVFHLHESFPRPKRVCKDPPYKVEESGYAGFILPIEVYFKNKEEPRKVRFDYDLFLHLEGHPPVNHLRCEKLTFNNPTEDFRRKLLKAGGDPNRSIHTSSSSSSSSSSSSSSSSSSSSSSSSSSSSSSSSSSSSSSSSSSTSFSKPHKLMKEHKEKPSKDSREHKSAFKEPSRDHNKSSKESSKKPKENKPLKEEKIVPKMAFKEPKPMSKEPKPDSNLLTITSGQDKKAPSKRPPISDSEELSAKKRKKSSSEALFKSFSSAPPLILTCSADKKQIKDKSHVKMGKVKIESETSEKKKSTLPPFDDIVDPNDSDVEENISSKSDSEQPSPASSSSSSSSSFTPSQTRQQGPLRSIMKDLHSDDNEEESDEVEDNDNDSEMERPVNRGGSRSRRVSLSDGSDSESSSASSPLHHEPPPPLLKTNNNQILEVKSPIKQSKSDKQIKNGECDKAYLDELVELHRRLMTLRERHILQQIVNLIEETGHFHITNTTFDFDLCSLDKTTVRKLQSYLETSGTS
# Ecoli rRNA inh OD600: also measured in Ecoli rRNA inh; calls as there; OD600 change, %; measured here: OD600 growth;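 optical density of the mix in the first replicate; 0 = DMSO median and -100 = no signal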
# Ecoli rRNA inh RFP: further read-out of Ecoli rRNA inh, marked with its call; RFP signal change, %; measured here: RFP humanized mutant strains;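 first replicate; 0 = DMSO median and -100 = no signal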
# * marks the source's active call; other numbers are inactive results; ? = inconclusive; . = not tested or not shown. Only part of the results is shown (hit frequency here may not be typical).
SMILES,T cruzi repl,Ecoli rRNA inh,Ecoli rRNA inh OD600,Ecoli rRNA inh RFP,RanGTP-Impb inh,Beta apoptosis,Vif A3G,Calb FLC,Bfl-1 A1 inh,MLL AF4-AF9 inh
Cc1cc2cc3c(cc2nc1SCC(=O)Nc1nc(C)c(C)s1)OCO3,2,.,.,.,4.4,-6,12%,12,-0.4,.
Cc1ccc(NC(=O)Cn2nnc3ccccc32)cc1,-13,-1,-17,-3.1,-1.1,-6,10%,1,-3.6,-5.5
CCCc1cc(=O)oc2c(C)c(OCC(=O)Nc3ccc(CN4CCOCC4)cc3)ccc12,22,1,2,1.6,1.5,.,.,-1,3.9,0.0
Cn1c(Cn2c3ccccc3c3ccccc32)n[nH]c1=S,-13,.,.,.,5.3,-4,25%,-11,0.3,-4.9
O=C(COC(=O)c1cc([N+](=O)[O-])ccc1N1CCOCC1)c1ccc(Br)cc1,21,13,6,2.8,0.4,2,-2%,-3,-0.3,2.2
CCC1/C(=N\O)CC(c2ccco2)NC1c1ccco1 (stereo not given),-10,.,.,.,3.0,1,-2%,-5,0.1,.
COc1ccc2c(CC(=O)OCC(=O)Nc3ccc4c(c3)OCO4)coc2c1,2,.,.,.,-2.9,-1,?,4,0.0,.
Cc1ccc(-n2c(SCC(=O)NCC3CCCO3)nc3n[nH]c(C)c3c2=N)cc1Cl (stereo not given),-3,.,.,.,-0.4,8,22%,18,1.3,.
O=[N+]([O-])c1cccc(C(=S)N2CCN(c3ccccc3)CC2)c1,-17,.,.,.,1.0,-4,-7%,-15,-0.4,.
O=C(Nc1ccc(F)cc1)N1CCCC(c2nc3c(nnn3Cc3ccccc3Cl)c(=O)[nH]2)C1 (stereo not given),-20,6,16,5.2,4.5,.,0%,3,-0.5,0.1
O=C(CSc1nccc(=O)[nH]1)c1ccco1,-2,8,12,0.6,-4.6,-1,13%,12,-0.4,0.0
COc1ccc(S(=O)(=O)NC(CC(=O)O)c2ccco2)cc1 (stereo not given),-3,.,.,.,0.4,-3,0%,-25,0.3,.
COc1cc(OC)c(OC)cc1CN1CCN(c2ccccc2OC)CC1,4,.,.,.,3.2,-7,13%,-7,0.3,.
CN(CC(=O)Nc1cccc(F)c1)C(=O)c1cn(-c2ccccc2)nc1-c1ccc(F)cc1,.,-16,-58,25,.,2,-7%,.,2.7,-0.3
C=CCSc1nnc(-c2nnc(SCC=C)n2-c2ccccc2)n1-c1ccccc1,0,.,.,.,3.9,.,-15%,6,-1.6,.
COc1ccc2[nH]cc(/C=N/NS(=O)(=O)c3ccc(C)cc3)c2c1,-12,-24,-16,12,-0.6,7,-9%,7,2.4,12
CCO[C@H]1OC(C(=O)N2CCOCC2)=C[C@@H](c2coc3ccccc3c2=O)[C@@H]1CCCO,-11,21,9,-5.4,-1.4,-9,7%,-3,-0.1,0.3
CCCCOCCCNC(=O)CCCOc1ccccc1,-5,.,.,.,-1.0,0,-6%,0,0.4,.
COc1cc(CN2CCNC(=O)C2CC(=O)N2CCCO2)cc(OC)c1 (stereo not given),-6,11,9,1.6,-3.7,.,-4%,-7,0.9,-0.7
COCCN1C(=O)N(c2cccc(OC)c2)C(=O)C1CC(=O)Nc1ccc(OC)cc1 (stereo not given),3,7,7,-3.2,0.7,-7,.,5,0.7,-2.5
O=C(NC1CCCCCC1)c1ccc(CS(=O)(=O)Cc2ccccc2F)o1,-9,2,12,-0.5,5.3,3,1%,0,1.1,-0.2
CC(C)CN(C(=O)CN1CCCCCC1)c1c(N)n(CC(C)C)c(=O)[nH]c1=O,-13,19,13,0.5,4.1,1,2%,19,-0.3,-0.2
Cc1cc(Cl)c2oc(C(=O)N3CCN(c4cccc(C)n4)CC3)c(C)c2c1,-4,-10,-18,-9.1,-1.8,3,.,1,-2.0,3.0
Cc1ccccc1N(CC(=O)O)S(C)(=O)=O,-6,.,.,.,0.7,-1,?,-10,1.1,.
NS(=O)(=O)c1ccc(CCNC(=O)CSc2ccsc2[N+](=O)[O-])cc1,2,-38,-46,-0.2,?,-1,4%,29,0.9,1.4
# Carrying on:
SMILES,T cruzi repl,Ecoli rRNA inh,Ecoli rRNA inh OD600,Ecoli rRNA inh RFP,RanGTP-Impb inh,Beta apoptosis,Vif A3G,Calb FLC,Bfl-1 A1 inh,MLL AF4-AF9 inh
Cc1ccc(C(=O)c2cnc3ccccc3c2-c2ccccc2)cc1,33,.,.,.,-4.4,-8,10%,9,-0.2,.
O=C(NC1CCCCC1)C(c1cccnc1)N(C(=O)c1csnn1)c1ccccc1F (stereo not given),4,4,8,0.4,4.4,-3,.,1,-0.6,0.4
O=C(Nc1cc(S(=O)(=O)N2CCOCC2)ccc1Cl)c1ccncc1,.,7,4,4.2,.,1,-8%,.,2.1,0.7
CC(OC(=O)CNC(=O)c1ccc2ccccc2c1)C(=O)NC1CCCCC1C (stereo not given),-15,-2,-20,-0.2,1.1,3,.,9,0.2,-1.8
CC(C)n1ncc2c(C(=O)Nc3ccc(CC#N)cc3)cc(C3CC3)nc21,.,-9,-27,-1.1,.,7,.,.,0.1,0.6
Cc1cccc2cc(CN(CC3CCCO3)C(=S)Nc3ccccc3)c(=O)[nH]c12 (stereo not given),-6,.,.,.,-1.1,-7,.,-3,0.6,.
c1ccc2c(C[C@@H]3CNCCN3CCC34CC5CC(CC(C5)C3)C4)cccc2c1,.,8,7,5.4,.,4,.,.,-0.4,13
O=C(Cc1c(Cl)cccc1Cl)Nc1cccnc1,-2,4,0,-2.9,0.9,1,.,0,0.9,-0.9
Cn1cccc1C(=O)OCc1nc2ccccc2c(=O)[nH]1,.,0,2,0.3,.,4,.,.,-1.0,2.0
COc1ccc(N2CCN(C(=O)c3cc4c(C)nc5ccccc5c4o3)CC2)cc1,13,-40,-53,-3.3,11,-3,-8%,22,-1.5,2.6
CCN(CC(=O)NCc1cccs1)C(=O)c1ccc(S(=O)(=O)N(C)C)cc1,-9,10,6,1.6,1.2,-1,5%,?,0.0,0.4
COC(=O)c1cc(C#N)c(Oc2cccc(C)c2C)nc1C,9,.,.,.,-1.8,4,-1%,0,-0.3,.
COc1ccccc1NC(=O)COC(=O)c1ccccc1C(=O)N1CCN(c2ccccc2)CC1,-1,-7,-9,-4.2,5.2,-2,-1%,-1,0.3,0.7
Fc1ccc(N2N=C(c3cccs3)CC2c2ccccc2)cc1 (stereo not given),26,-16,-12,15,2.0,3,-7%,9,-0.6,-78
Cc1cc(C)c(OCC(O)CN2CCN(C(=O)c3ccccc3)CC2)c(C)c1 (stereo not given),-1,-18,-20,0.8,1.7,-2,-5%,6,1.0,-24
Cc1cccc(C)c1N1CCN(C(=O)Cn2cncn2)CC1,-5,6,1,3.0,0.8,4,-4%,-7,-0.4,0.4
O=C(COC(=O)c1cccnc1Cl)NCc1ccco1,-8,23,9,-5.3,-0.1,0,14%,-6,0.2,0.6
COC(=O)c1ccc(N=Cc2c(C(F)(F)F)[nH]n(C)c2=O)cc1,-20,-4,9,-2.7,5.6,-3,0%,1,0.5,-1.9
Nc1ccc(-c2nc3ccc(C(=O)O)cc3s2)cc1,-6,-16,-20,0.5,-5.8,0,.,4,-9.7,2.5
CCOc1c(Cl)cc(/C=C/C(=O)N(CC)CC(=O)NCc2cccs2)cc1OC,4,-4,7,-1.5,1.0,0,6%,-2,1.3,-6.6
CC1CCc2c(c3ccccc3[nH]c2=O)O1 (stereo not given),-8,.,.,.,-3.8,-9,11%,-13,-0.1,.
COc1ccccc1NC(=O)C(C)Sc1nccn1C (stereo not given),.,3,2,-1.9,.,0,2%,.,-0.3,2.3
Clc1cccc(CN2CCc3c([nH]c4ccccc34)C2)c1Cl,20,-55,-79,-18,2.9,-2,.,54,1.2,5.6
CCn1c(COc2c(C)cccc2C)nnc1SCc1nc2ccccc2c(=O)[nH]1,24,-2,-2,-11,?,1,4%,6,1.4,-2.7
CC[C@@H](C)[C@@H]1CN([C@@H](C)CN2CCC[C@H]2CN2C(N)=NC[C@@H]2Cc2ccccc2)C(=N)N1CCCC1CCCC1,.,-55,-83,-21,.,2,.,.,-0.2,16
# Further compounds follow.
SMILES,T cruzi repl,Ecoli rRNA inh,Ecoli rRNA inh OD600,Ecoli rRNA inh RFP,RanGTP-Impb inh,Beta apoptosis,Vif A3G,Calb FLC,Bfl-1 A1 inh,MLL AF4-AF9 inh
C=CCSc1ncc(-c2ccccc2)cn1,7,-4,-13,-2.9,5.0,-1,.,3,-0.1,0.5
Cc1cc(C(=O)N/N=C2\CC(=O)CC(C)(C)C2)c2ccccc2n1,-7,9,12,10,-2.4,-5,.,-11,-0.9,0.6
Cc1cc(NC(=O)C2C3C(=O)N(CCC(C)C)C(C(=O)NCc4ccccc4)C34C=CC2(C)O4)no1 (stereo not given),-19,.,.,.,?,-7,0%,2,-0.8,.
CCCCNc1nnc(SCC(=O)c2c(N)n(CCC)c(=O)[nH]c2=O)s1,.,.,.,.,.,0,-1%,.,2.3,1.5
Cc1ccccc1N(C(=O)Cc1c[nH]c2ccccc12)C(C(=O)NC1CCCCC1)c1ccco1 (stereo not given),28,.,.,.,?,16,32%,-28,0.1,.
O=C(N/N=C/c1ccc([N+](=O)[O-])o1)c1ccc(O)cc1,44,-34,-33,-8.6,-3.0,100*,.,.,-0.3,-0.9
CSc1ccccc1NC(=O)CN(C)CC(=O)Nc1ccccc1C(F)(F)F,-3,-15,-9,-1.2,1.2,-7,-3%,-26,-1.0,-5.9
COc1ccc(N2Cc3ccc(OC)c(OC)c3C2=O)cc1,-4,-1,-2,-7.1,-3.3,-1,2%,-12,-1.6,-1.6
Cc1c(Nc2cc(N3CCCC(C)C3)c3nonc3c2[N+](=O)[O-])c(=O)n(-c2ccccc2)n1C (stereo not given),26,.,.,.,0.3,9,29%,-10,-0.4,.
COc1ccc(CC(=O)N2CCN(c3ccc(C4=NNC(=O)CC4C)cc3)CC2)cc1 (stereo not given),8,.,.,.,-0.8,-1,5%,1,0.2,.
O=C(Cc1n[nH]c(=O)c2ccccc12)Nc1ccc(-c2nnc3n2CCCCC3)cc1,-5,.,.,.,0.1,-6,-5%,?,0.3,.
COc1ccccc1/C=[N+](\[O-])C1SC(=S)N(C)C1(C)C (stereo not given),0,9,5,-1.3,-1.3,-6,-8%,-10,0.7,-1.7
O=S(=O)(Nc1ccccc1O)c1cccc2cccnc12,-10,-14,-14,2.2,?,6,5%,-3,0.3,1.2
c1ccc2c(c1)[nH]c1c(N3CCC4(CC3)OCCO4)ncnc12,2,.,.,.,1.2,36,2%,1,0.2,.
Cc1c(Br)c([N+](=O)[O-])nn1C(C)C(=O)N1CCCc2ccccc21 (stereo not given),47,.,.,.,7.6,-10,9%,?,1.9,.
CCOC(=O)N1CCN(C(=O)CSCc2nc(-c3ccccc3F)oc2C)CC1,-4,.,.,.,?,-2,19%,-2,0.7,.
COc1cc(/C=N/NC(=Nc2ccc(C)cc2)c2nc3ccccc3s2)ccc1O,42,.,.,.,5.5,16,1%,62,0.7,.
